ClpP mod – qHTS Assay for Activators of ClpP; ATP-dependent Clp protease proteolytic subunit (Bacillus subtilis (strain 168)), P80244; Potency, µM (doses to about 57.5 µM), without a hit: top-dose activity change, negative = active; 340,000 compounds, 1.9% hits; purified B. subtilis ClpP, FRET peptide cleavage, 20 min; active = well fitted falling curve with a large enough effect; inconclusive = small, poorly fitted or top-dose-only effect; inactive = no such curve, though single readings can be large or run the other way; note: potency is the fitted concentration of half-maximal effect; the source files actives as falling curves though it sought activators and does not explain the sign; nearly all actives have a fitted effect of over 65% in size; many hits overshoot -100%
Target sequence (P80244 whole entry, looked up): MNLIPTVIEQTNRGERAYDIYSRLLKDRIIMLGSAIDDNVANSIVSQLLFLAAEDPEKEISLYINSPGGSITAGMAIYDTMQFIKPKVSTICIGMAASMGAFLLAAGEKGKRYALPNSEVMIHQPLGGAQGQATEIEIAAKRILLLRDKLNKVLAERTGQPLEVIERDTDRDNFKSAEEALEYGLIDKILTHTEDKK
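FRET quenching reversal measured ClpP activation: 10 microg/mL B. subtilis ClpP at pH 8 with the FRET-FV decapeptide, read at 430 nm after 320 nm excitation. The 20-min minus 0-min signal was scaled between DMSO/no-enzyme wells and ADEP (5.8 microM final).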
gsp ag – agonists of gsp mutant (McCune-Albright syndrome); gsp mutant cells, cAMP HTRF, 30 min; control for the full effect not named in the record; Potency, µM (top dose mostly 76.9 µM), for inactives: at the highest dose activation (cAMP increase), most hits filed as activators; 340,000 compounds, 0.13% hits; AID 624287; active = well fitted activation curve with a large enough effect; inconclusive = small, poorly fitted or top-dose-only effect, or another doubt; inactive = no such curve, though single readings can be large or run the other way; cell line not stated here;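 note: phosphodiesterase inhibitor Ro 20-1724 added with compounds to block cAMP breakdown; potency is the fitted concentration of half-maximal effect; nearly all actives have a fitted effect of over 60% in size; about a fifth of the inactives were tested at one dose only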
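Cells in DMEM/10% FBS with G418 were pretreated with compounds in DMSO plus […] (300 uM stock) for 30 min at 37C. cAMP was measured by HTRF (cAMP-d2 plus anti-cAMP antibody-K) after 30 min at room temperature.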
Menin-MLL FL inh – displaces fluorescein MLL peptide from human menin. AID 1766. FP activity change, % at 61.4 µM. 290,000 tested, under 10 active. Fluorescence polarization, fluorescein-MLL peptide displacement from menin; inconclusive = falling polarisation curve, or a change in total fluorescence; inactive = total fluorescence flat and polarisation flat or rising; no compound was filed as active; the % refers to the polarisation; negative = inhibition;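 note: % of control where 0% means no effect; inhibitors lower the polarisation; unlabelled MLL peptide was the positive control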
Sfp PPTase inh – Sfp phosphopantetheinyl transferase inhibition; Q9F4F7; Biochemical Sfp PPTase activity, qHTS; Potency, µM, without a hit: max response, negative = inhibition, usual class: inhibitors; 310,000 compounds, 3.5% hits; active = well fitted inhibition curve with a large enough effect; inconclusive = small, poorly fitted or top-dose-only effect, or another doubt; inactive = no such curve, though single readings can be large or run the other way;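 note: the enzyme is Sfp with the accession as filed and its product quenches rhodamine fluorescence; potency is the fitted concentration of half-maximal effect; 0% = enzyme reaction without inhibitor and -100% = no enzyme wells; top concentration of the series not given in the record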
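Step 1, compound plus 15 nM Sfp-PPTase, 15 min, room temperature. Step 2, add rhodamine-CoA (5 uM) and BHQ-2-YbbR (12.5 uM). Step 3, read 525/598 nm fluorescence at 0 and 30 min.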
gsp antag – antagonizes gsp, the McCune-Albright syndrome mutation; AID 624288; gsp-mutant cells, cAMP HTRF, 30 min; control for the full effect not named in the record; 340,000 compounds, 0.4% hits; Potency, µM (highest dose often 76.9 µM), inactives show at the highest dose activity change, negative = inhibition, actives largely listed as inhibitors; active = falling curve of any shape with a large fitted effect; inconclusive = falling curve, mostly with a smaller effect; inactive = flat or rising curve; cell line not stated here;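 note: intracellular cAMP measured with PDE inhibitor Ro 20-1724 present during compound exposure; potency is the fitted concentration of half-maximal effect; % is set by controls: 0 for no effect and ±100 for the full control effect; nearly all actives have a fitted effect of over 65% in size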
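Cells in G418 medium, seeded 16-24 h, 37C; buffer exchange to DPBS + 1 mM CaCl2, 0.5 mM MgCl2, 0.05% BSA; cpds in DMSO + […] (300 uM stock), 30 min 37C; HTRF cAMP detection.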
D2 ag – activates the human D2 dopamine receptor. DiscoveRx PathHunter D2 beta-arrestin, luminescence, 90 min; 100% = 57 uM dopamine signal. activation, % (test concentration not listed). 360,000 compounds, 0.084% hits; in the data active = activation above about 40%; inconclusive = about 15% to 40%; inactive = below about 15%; note: compound concentration not given in the record; the text of the record calls up to 30% inactive
Target sequence (P14416 whole entry, looked up): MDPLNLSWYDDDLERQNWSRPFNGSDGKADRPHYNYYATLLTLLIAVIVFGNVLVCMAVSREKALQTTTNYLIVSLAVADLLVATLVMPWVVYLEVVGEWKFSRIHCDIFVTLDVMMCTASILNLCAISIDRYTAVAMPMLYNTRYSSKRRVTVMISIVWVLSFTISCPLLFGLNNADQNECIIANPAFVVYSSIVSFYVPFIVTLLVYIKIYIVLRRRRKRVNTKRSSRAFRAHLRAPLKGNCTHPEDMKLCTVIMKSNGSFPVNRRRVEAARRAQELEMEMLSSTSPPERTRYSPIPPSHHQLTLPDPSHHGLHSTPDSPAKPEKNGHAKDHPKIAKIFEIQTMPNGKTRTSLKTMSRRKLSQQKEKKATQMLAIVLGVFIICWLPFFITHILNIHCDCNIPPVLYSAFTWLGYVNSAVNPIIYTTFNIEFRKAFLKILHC
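DiscoveRx PathHunter D2 beta-arrestin cells (2,100/well) attached overnight, then compound-stimulated 90 min at 37 C in HBSS/10 mM HEPES/0.1% Tween-20 buffer; beta-galactosidase complementation read by luminescence after 1 h at ambient temperature. Dopamine 57 uM final (EC100) as control.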
PINK1 expr mod – modulators of PINK1 expression; PINK1 immunofluorescence, high-content cytometry, 24 h; Potency, µM (top dose mostly 76.6 µM), for inactives: top-dose activation (PINK1 increase), hits mostly activators; 410,000 compounds, 0.2% hits; AID 624263; active = well fitted activation curve with a large enough effect; inconclusive = small, poorly fitted or top-dose-only effect; inactive = flat fitted curve, though single readings scatter; cell line not stated here;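 note: potency is the fitted concentration of half-maximal effect; % of control where 0% means no effect; nearly all actives have a fitted effect of over 65% in size; a mitochondrial uncoupler was the plate control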
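Fluorescence from anti-PINK1 antibody, together with nuclear and cell stains, was scanned on a laser-scanning cytometer. Before staining, stable-line cells were incubated 24 hours with compounds at 5 concentrations; primary antibody 12 h at 10 degrees C.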
The depositor's hits bear a star; ? = inconclusive; . = not tested or not shown; & = joins results of further samples; [ ] = another dose, or the depositor's remark. This is a random part of the collection. Share with any hit: about 5.1%.

SMILES | ClpP mod | gsp ag | Menin-MLL FL inh | Sfp PPTase inh | gsp antag | D2 ag | PINK1 expr mod
Cc1cc(COC(=O)C2N3C(=O)[C@@H](NC(=O)COc4ccccc4)[C@H]3SC2(C)C)on1 (stereo partly specified) | 0.9%&-0.3% | -4% | -1.7 | 7% | 6% | -3.0 | 1.3%
CCNc1ccc(S(=O)(=O)N(C)C)cc1NCC(=O)Nc1ccccc1Br | 0.6% | -18%[15.4 µM] | -0.8 | -7% | -25% | -3.9 | 2.7%
O=c1[nH]c(/C=C/c2cccc3ccccc23)nc2ccccc12 | . | -2%[15.4 µM] | 8.0 | -16% | . | -4.4 | 25%
Nc1ccc2oc(=O)c3ccccc3c2c1 | -2.0% | -12% | 5.7 | 5% | 4% | 0.0 | -1.0%
CCOc1ccc(-n2c(SCC(=O)Nc3cc(C)on3)nnc2-c2c[nH]c3ccccc23)cc1 | -2.1% | 0% | 3.3 | 14% | 9% | 4.6 | ?
Cc1cc([N+](=O)[O-])cc2ncccc12 | 0.5% | -8% | 4.5 | 12% | 9% | -6.7 | -1.4%
CCCC(=O)N1CCN(c2ccc(NC(=O)c3ccc([N+](=O)[O-])o3)cc2)CC1 | . | -29%[15.4 µM] | 0.8 | 15% | -22% | 5.2 | -0.5%
COc1ccc(-c2csc3ncnc(N4CCN(c5cccc(OC)c5)CC4)c23)cc1 | -6.9% | -20% | . | 5% | -2% | -2.2 | 1.8%
Cc1ccc(C(=O)OCC(=O)c2c[nH]c3ccccc23)cc1NC(=O)c1ccco1 | -1.4% | -3%[15.4 µM] | 8.8 | 16% | -19% | -1.7 | 0.1%
CN1CCN(C=Nc2nc3ccccc3nc2N2CCCC2)CC1 | 0.8% | -1%[15.4 µM] | ? | -2% | -21% | -5.3 | -1.3%

Part of the list above, field by field.
> Cc1cc(COC(=O)C2N3C(=O)[C@@H](NC(=O)COc4ccccc4)[C@H]3SC2(C)C)on1 (stereo partly specified)
  ClpP mod: 0.9%&-0.3%	gsp ag: -4%	Menin-MLL FL inh: -1.7	Sfp PPTase inh: 7%	gsp antag: 6%	D2 ag: -3.0	PINK1 expr mod: 1.3%
> CCNc1ccc(S(=O)(=O)N(C)C)cc1NCC(=O)Nc1ccccc1Br
  ClpP mod: 0.6%	gsp ag: -18%[15.4 µM]	Menin-MLL FL inh: -0.8	Sfp PPTase inh: -7%	gsp antag: -25%	D2 ag: -3.9	PINK1 expr mod: 2.7%
> O=c1[nH]c(/C=C/c2cccc3ccccc23)nc2ccccc12
  ClpP mod: .	gsp ag: -2%[15.4 µM]	Menin-MLL FL inh: 8.0	Sfp PPTase inh: -16%	gsp antag: .	D2 ag: -4.4	PINK1 expr mod: 25%
> Nc1ccc2oc(=O)c3ccccc3c2c1
  ClpP mod: -2.0%	gsp ag: -12%	Menin-MLL FL inh: 5.7	Sfp PPTase inh: 5%	gsp antag: 4%	D2 ag: 0.0	PINK1 expr mod: -1.0%

Going on with the list.
SMILES | ClpP mod | gsp ag | Menin-MLL FL inh | Sfp PPTase inh | gsp antag | D2 ag | PINK1 expr mod
CCN1Cc2ccccc2-c2ccccc2S1(=O)=O | 0.4% | . | . | . | 7% | -2.4 | -0.6%
CCOC(=O)C1=NN(C(=O)Nc2ccc(OC)cc2)C2C(=O)N(c3cccc(C(F)(F)F)c3)C(=O)C12 (stereo unspecified) | -2.5% | 0% | -0.8 | 6% | -1% | -8.5 | 2.0%
O=C(CSc1nnnn1C1CCCC1)NCc1ccc2c(c1)OCO2 | -2.2% | 8% | 2.8 | 19% | -2% | -2.1 | -2.7%[38.3 µM]
COC(=O)CC1C(=O)NCCN1C(=S)Nc1ccc(F)cc1 (stereo unspecified) | . | 15% | 0.6 | 31%[activator] | 4% | 1.4 | -0.5%
COc1ccccc1Oc1ccc2c(c1)C(=O)N(c1ccc(O)cc1)C2=O | 1.2% | 1% | 3.3 | 5% | -8% | 3.2 | 9.8%
CCSc1nc2cc(C(=O)OC)ccc2c(=O)n1CC | -11% | -1% | 2.3 | 3% | 10% | -1.9 | 1.8%[38.3 µM]
Cc1cc(NC(=O)Cn2cc([N+](=O)[O-])cn2)no1 | 0.9% | ? | -3.1 | -18% | 0% | -0.2 | -1.3%
CC(C)c1nc(C#N)c(NCCCn2ccnc2)o1 | 0.2% | -22% | 1.8 | -7% | 9% | -3.9 | -0.7%
O=C(Nc1ccccc1)Nc1ccccc1Br | -2.6% | -23%[15.4 µM] | -0.4 | 10% | -5% | 2.4 | 3.0%
CCCC(=O)NC(Nc1ccc(S(=O)(=O)Nc2cc(C)on2)cc1)(C(F)(F)F)C(F)(F)F | -1.8% | -3% | . | . | 2% | -0.9 | -1.1%
C=CCc1cc(/C=N/NC(=O)CSc2nnc(CCCc3ccc(OC)cc3)o2)cc(OC)c1O | 2.6% | -26% | 1.2 | 8% | -10% | -1.1 | 5.7%
Cc1ccccc1NS(=O)(=O)c1ccc(OCCNS(C)(=O)=O)cc1 | -0.8% | -54%[inhibitor] | 0.7 | 29% | -8% | -2.2 | 0.0%
Cc1ccc(-n2c(CNc3ccc(F)cc3)nnc2SCC(N)=O)cc1 | 0.6% | -13% | -2.8 | 2% | 5% | -6.0 | -1.0%
COCC(=O)Nc1sc2c(c1C(=O)OC)C(C(=O)OC)CC2 (stereo unspecified) | -10% | -36%[inhibitor] | 3.6 | 20% | -15% | -2.1 | 3.9%[38.3 µM]
CC1(C(=O)N2CCCCC2)CCN1C(=O)Cc1ccc(-c2ccccc2)cc1 (stereo unspecified) | -1.3% | . | . | . | . | -2.0 | -0.9%
COc1ccc(C(NC(=O)C2CCN(CCCc3ccccc3)CC2)c2cccs2)cc1 (stereo unspecified) | 0.0% | . | . | . | . | -6.0 | 0.9%
O=C(OCC(=O)N1CCCCCC1)c1n[nH]c(=O)c2ccccc12 | -2.2% | ? | 3.1 | 13% | -3% | -1.5 | -0.1%
CC1CCCC(NC(=O)COC(=O)c2cccnc2Cl)C1C (stereo unspecified) | 1.9% | ? | . | . | 15% | 8.1 | 0.2%
CCOc1ccc2nc(NC(=O)Cn3cnc4c3c(=O)n(C)c(=O)n4C)sc2c1 | -1.4% | -1% | 9.2 | -3% | 7% | 3.1 | 7.1%[38.3 µM]
COC(=O)c1ccc(Nc2ncnc3c2cnn3-c2cccc(C)c2)cc1 | 4.2% | ? | 2.5 | 12% | 9% | -2.7 | 0.5%
CN1CCN(c2ccc(C(CC(N)=O)NC(=O)Cc3ccc(Br)cc3)cc2[N+](=O)[O-])CC1 (stereo unspecified) | 1.6% | . | -1.6 | 9% | 4% | -2.1 | 3.1%
Cc1cc(C)nc(SC2c3cccc4cccc(c34)C2NS(=O)(=O)c2ccccc2)n1 (stereo unspecified) | 1.8% | -1% | 2.6 | 15% | -11% | 4.3 | 3.7%
CCOc1cc(S(=O)(=O)N(CC)CC)ccc1Cl | . | -20% | -2.5 | 17% | 3% | 3.0 | -0.2%
CCN(c1ccccc1)S(=O)(=O)c1ccc(Cl)c(NC(=O)COC(=O)c2ccc[nH]c2=O)c1 | . | 16%[15.4 µM] | 0.4 | 11% | 2% | -3.9 | -0.7%
CC(C)c1ccc(S(=O)(=O)N2CCN(C(=O)c3cccc(S(=O)(=O)N4CCOCC4)c3)CC2)cc1 | 1.4% | 11% | . | . | -8% | 1.8 | 2.5%
O=C(CNS(=O)(=O)c1ccc(Br)cc1Cl)OCC(=O)c1ccc[nH]1 | 8.6% | 4%[15.4 µM] | . | . | -9% | -3.8 | -0.2%
COCCNC(=O)Cn1nc(C(F)(F)F)cc1C | -0.1% | 16% | -1.8 | 9% | 3% | 2.6 | 1.6%[38.3 µM]
COc1ccccc1CNc1ncnc2ccc(-c3cccc(C#N)c3)cc12 | . | . | 0.4 | 8% | . | . | -0.4%
Cc1cccc(N(CC(=O)N2CCCC2)S(=O)(=O)c2ccccc2)c1C | -2.3% | -2% | -1.2 | -7% | 12% | -2.9 | -3.2%[38.3 µM]
CC(/C=C/c1ccco1)=N\NC(=O)CNc1ccc2ccccc2c1 | -1.0% | -47%[inhibitor] | -0.2 | -6% | -18% | -2.5 | 6.1%
Cc1nnc(SCC(=O)Nc2ccc(Cl)cn2)n1Cc1ccccc1 | 0.4% | -37% | 0.8 | 1% | 20% | -1.7 | 5.0%
CCc1cc2c(C)ccc(C)c2nc1SCC(=O)Nc1cc(C)on1 | . | 8%[15.4 µM] | 0.2 | 22% | -3% | -1.9 | 8.5%
CCn1c(SCC(=O)c2ccc(CNC(C)=O)o2)nnc1-c1cccs1 | -1.5% | 45% | 4.5 | 50µM* | 8% | -4.1 | 3.4%
O=C(Nc1ccncc1)c1ccc(NS(=O)(=O)c2ccc3[nH]c(=O)[nH]c3c2)cc1 | -19% | 1% | . | 10% | 5% | -4.5 | -0.5%
O=C1C2C3C=CC(C2C(=O)N1C1CCCCC1)C1C(=O)N(C2CCCCC2)C(=O)C31 (stereo unspecified) | 0.6% | 12% | 0.5 | 8% | 1% | -1.8 | -0.6%
CCN1CCN(C(=O)C(C)Nc2ccc(OC)cc2OC)CC1 (stereo unspecified) | . | -10% | -1.0 | 7% | -9% | 0.0 | 5.0%
O=C(Nc1cccc(C(=O)O)c1)/C(=C/c1ccccc1)NC(=O)c1cccc(Br)c1 | 4.7% | 6% | . | . | 3% | -1.5 | 0.9%
CCCNC(=O)C1(C)CCN(C(=O)/C=C/c2ccccc2)C1 (stereo unspecified) | 0.1% | . | . | . | . | 0.8 | 0.2%
O=C(O)c1cccc(NC(=O)c2ccc(Cl)c(S(=O)(=O)N3CCCCCC3)c2)c1 | -1.6% | -98%[inhibitor] | -1.8 | 4% | 9% | 1.9 | 0.7%
O=C(NCCCN1CCN(c2ccccc2F)CC1)C1CCC(=O)N1C1CCCCC1 (stereo unspecified) | 0.8% | -2% | ? | 9% | 6% | 14 | .
CCC(=O)Nc1ccc(S(=O)(=O)NCC2CCCO2)cc1 (stereo unspecified) | -2.5% | 16% | 2.4 | 6% | 2% | -1.2 | -2.1%[38.3 µM]
